# MgcRacGAP: MgcRacGAP inhibitors via phosphate release, confirmation, orthogonal assay, biochemical, inorganic phosphate detection, Rac1 (AID 652142) | inhibition, % | 2,400 tested, under 10 active | MgcRacGAP/Rac1F28L GTP hydrolysis, Biomol green phosphate; hits give high values; test concentration not given here; none was called active though about 1 in 100 pass the limit;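 active means inhibition over three standard deviations or about 65%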;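 further: full inhibition control lacks the GAP enzyme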
# Starred values were filed as active, the others as inactive.
MgcRacGAP | molecule
26 | CN(C)CCO/N=C(\c1ccc(Br)cc1)c1cccnc1
34 | COc1cc(C(=O)N/N=C(\C)c2ccc(NC(=O)Cc3ccccc3)cc2)ccc1O
38 | Cc1cccn2c(CNC3CCCc4ccccc43)c(C(=O)N3CCCCC3)nc12 (stereo not drawn)
22 | CN(C)CCNc1ccc2nnn3c4ccc(O)cc4c(=O)c1c23
26 | CCN1CCN(CCOc2ccccc2OCc2ccccc2)CC1
29 | COc1cccc2c1C(=O)c1c(O)c3c(c(O)c1C2=O)CC(O)(C(C)=NNC(=O)c1ccc(Cl)c(Cl)c1)CC3OC1CC(N)C(O)C(C)O1 (stereo not drawn)
20 | O=C(/C=C/Nc1ccc(Nc2ccccc2)cc1)c1cccs1
25 | CC1CCCCN1CC(=O)Nc1ccc(N2CCCCCC2)cc1 (stereo not drawn)
19 | Cc1ccc(Cl)cc1-c1ccc(C=Nc2ccc(N3CCOCC3)cc2)o1
32 | CC(C(=O)NC1CCCCC1)N1CCN(C)CC1 (stereo not drawn)
30 | c1cc2c(cc1CNc1ccc(N3CCOCC3)cc1)OCO2
28 | CCN(CC)c1ccc(N=Cc2c(C)[nH]c3ccccc23)cc1
34 | COc1cc(/C(C)=N/N2CCN(c3ccccc3OC)CC2)ccc1O
29 | Oc1ccc(Nc2ccnc3cc(Cl)ccc23)cc1
24 | Cc1cc(NC(=O)CN2CCC(C)CC2)no1
25 | Cc1nonc1C(=O)N/N=C/c1ccc(O)c(O)c1
29 | COC(=O)C1=C(C)N(Cc2ccco2)C(=O)/C1=C\c1ccc([N+](=O)[O-])cc1
22 | CCN(CC)c1ccc(NC(=O)CN(C)Cc2cccs2)cc1
26 | Oc1ccc(NC(=S)Nc2ccccc2)cc1
26 | O=C(O)c1cc(N/N=C/c2c(O)ccc3ccccc23)ccc1Cl
12 | COc1cc(CN2CCN(C(=O)CC(C)C)CC2)cc(OC)c1O
4 | CCCSC1=N/C(=C\C=C\c2ccco2)C(=O)S1
0 | Nc1ccc(N2CCOCC2)c(Cl)c1
13 | COC(=O)c1ccc(NCc2c(O)ccc(O)c2Br)cc1Cl
27 | O=C(c1cccnc1)N1CCN(Cc2cccc(Br)c2)CC1
66 | O=C(Cn1sc2ccccc2c1=O)Nc1ccccc1
11 | CC(=O)N1CCN(c2ccc(NCc3ccccc3)cc2)CC1
25 | Brc1ccc(OCCCN2CCOCC2)cc1
21 | O=C(CNCC1CCCO1)Nc1ccc(N2CCCCCC2)cc1 (stereo not drawn)
25 | COc1ccc(NC2CCCN(C(=O)c3ccccc3-c3ncc[nH]3)C2)cc1 (stereo not drawn)
34 | Cc1cc(OCCCN2CCN(Cc3ccccc3)CC2)ccc1[N+](=O)[O-]
37 | Oc1ccc(-c2csc(Nc3ccccn3)n2)c(O)c1
49 | N=C(N)c1ccc(/C=C/c2ccc(C(=N)N)cc2O)cc1
30 | CCOC(=O)c1cc2c(=Cc3ccc(N(C)C)cc3)c3ccccc3n2[n+]1C
6 | Nc1cc(Br)c(N)c(Br)c1
37 | Cc1ccc(C)c(OCC(O)CN2CCC(C)CC2)c1C (stereo not drawn)
13 | O=C(N/N=C/c1ccc(O)cc1)c1cc[n+](Cc2ccccc2)cc1
10 | Cc1ccc(NC(=O)CNCC(c2ccccc2)N(C)C)cc1F (stereo not drawn)
5 | CCN1CCN(c2ccc(N=Cc3ccc(O)cc3O)cc2)CC1
27 | O=C1CCCC(O)=C1C=Nc1ccc(O)cc1
4 | COc1ccc(CN2CCN(Cc3c[nH]c4ccccc34)CC2)c(OC)c1
20 | O=C(CCN1CCCCCC1)Nc1ccc2c(c1)OCCO2
13 | COc1ccc2nc(C)cc(SCC(=O)N/N=C/c3ccc(O)c(O)c3)c2c1
20 | COc1ccc(NC(=O)Nc2ccc(N(C)C)cc2)cc1
22 | COc1cc2c(cc1N)-c1ccc(N)cc1C2=O
24 | COc1ccc(/C=N\NC(=O)c2ccc(=O)[nH]n2)cc1O
27 | COc1ccc(N2CCN(C(c3cccs3)C(C)NC(=O)c3ccco3)CC2)cc1 (stereo not drawn)
30 | O=C(Nc1cc(Br)c(O)c(Br)c1)c1cccc(NC(=O)c2ccco2)c1
11 | COc1ccc(/C=N/Nc2nc3ccccc3s2)cc1O
13 | COc1ccc2[nH]c3c(N4CCC(O)(c5cccc(C(F)(F)F)c5)CC4)ncnc3c2c1
28 | CCOC(=O)C1CCN(Cc2cn[nH]c2-c2ccccc2)CC1
15 | CCCN(CCC)CCCNC(=S)Nc1ccc2nc(N3CCCC3)cc(C)c2c1
29 | O=C(C1=C(O)C(=O)N(c2nc3ccc(Cl)cc3s2)C1c1ccco1)c1ccco1 (stereo not drawn)
28 | Cc1ccc(-c2cnc(NCc3cc4c(cc3[N+](=O)[O-])OCO4)n2C)cc1C
40 | Nc1nc2c(s1)CCc1ccccc1-2
24 | COC(=O)c1cc(NCc2c(F)cccc2Cl)ccc1N1CCOCC1
17 | COc1ccc(CNc2ccc(N3CCN(C(C)=O)CC3)cc2)cc1OC
35 | CCN(C=NC1=NN(c2cccc(C(F)(F)F)c2)CC1)CC
64 | Cc1ccc(-c2ccc(/C=C3\C(=O)ON=C3c3ccccc3)o2)c([N+](=O)[O-])c1
22 | CC(/C=C/c1ccc(O)cc1)=N/O

# Retrieved by structure from the list above (two):
MgcRacGAP | molecule
15 | CCCN(CCC)CCCNC(=S)Nc1ccc2nc(N3CCCC3)cc(C)c2c1
13 | COc1ccc2[nH]c3c(N4CCC(O)(c5cccc(C(F)(F)F)c5)CC4)ncnc3c2c1

# Following part.
MgcRacGAP | molecule
-4 | Cc1ccc(C2C=NN(c3ccccc3)C2=O)cc1 (stereo not drawn)
4 | Nc1ccc2ccc(O)cc2c1
3 | CC1(C)CC(=O)C(C=Nc2ccc(N)cc2)=C(O)C1
29 | CSCCOC(=O)C1=C(C)Nc2ccc(C)cc2S1
3 | N/C(=N\OC(=O)N1c2ccccc2Sc2ccccc21)c1ccccc1
34 | COc1ccc(N2CCN(C(CNS(=O)(=O)c3cccs3)c3cccnc3)CC2)cc1 (stereo not drawn)
38 | CCN(CC)Cc1cc(Nc2c3ccccc3nc3c4ccccc4n(C)c23)cc(CN(CC)CC)c1O
18 | COc1nc(Nc2ccc(O)cc2)nc(OC(C(F)(F)F)C(F)(F)F)n1
34 | O=[N+]([O-])c1cccc(CN2CCN(Cc3ccco3)CC2)c1
28 | C/C(=N\NC(=O)c1cccc(N/N=C(\C)c2cc(O)ccc2O)c1)c1cc(O)ccc1O
68 | COc1ccc(Nc2ccc3ccccc3c2)cc1
19 | COc1cc(-c2nc3cnccn3c2Nc2c(C)cccc2C)ccc1O

# In the list so far, these have an NH in an aromatic ring:
MgcRacGAP | molecule
28 | CCN(CC)c1ccc(N=Cc2c(C)[nH]c3ccccc23)cc1
25 | COc1ccc(NC2CCCN(C(=O)c3ccccc3-c3ncc[nH]3)C2)cc1 (stereo not drawn)
4 | COc1ccc(CN2CCN(Cc3c[nH]c4ccccc34)CC2)c(OC)c1
24 | COc1ccc(/C=N\NC(=O)c2ccc(=O)[nH]n2)cc1O
13 | COc1ccc2[nH]c3c(N4CCC(O)(c5cccc(C(F)(F)F)c5)CC4)ncnc3c2c1
28 | CCOC(=O)C1CCN(Cc2cn[nH]c2-c2ccccc2)CC1

# (next part)
MgcRacGAP | molecule
17 | COc1cccc(Oc2cn[nH]c2-c2ccc(O)cc2O)c1
34 | COc1cc(/C=C/C(=O)OC(C)C(=O)Nc2c(C)n(C)n(-c3ccccc3)c2=O)ccc1O (stereo not drawn)
38 | CC(C)N1CCN(C(=O)c2cccc(Cl)c2)CC1
2 | CCOc1cc(/C=N/N2CCN(Cc3ccccc3)CC2)ccc1O
48 | COc1ccc2[nH]c3c(C)c4ccncc4c(C)c3c2c1
33 | COc1cc(/C=C2\SC(=S)N(NC(=O)c3cccc(O)c3)C2=O)ccc1O
36 | CC[n+]1c(/C=C2\Sc3ccccc3N2C)ccc2cccc(C)c21
12 | COc1ccc(N2CCN(C(CNC(=O)CC(C)(C)C)c3ccc4c(c3)OCO4)CC2)cc1 (stereo not drawn)
26 | O=C(Cc1cccs1)N/N=C\c1ccc(O)cc1
32 | Cc1ccc(C(C)(C)C)cc1S(=O)(=O)N1CCC(C(=O)N2CCN(c3ccc(O)cc3)CC2)CC1
18 | Oc1ccc(Cl)cc1N=Cc1sc2ccccc2c1Cl
8 | COc1cc2cc(-c3ccc(O)cc3O)nc(C)c2cc1OC
31 | CCCCn1c(=S)[nH]c2c(=O)n(C)c(=O)n(C)c21
10 | COc1cc(/C=C2\C(=O)N(C)C(=S)N2C)ccc1O
4 | C=CCNC(=O)CN1CCN(C(c2ccccc2)c2ccccc2)CC1
31 | C#CCOCCOCCOCCNc1nc(N2CCN(C(=O)[C@H](CCCN=C(N)N)n3cc(C(N)[C@H](C)CC)nn3)CC2)nc(N2CCN(C(=O)[C@H](CCCN=C(N)N)n3cc(C(N)[C@@H](C)CC)nn3)CC2)n1 (stereo partly drawn)
11 | CCOC(=O)C1=C(COC(=O)/C=C/c2ccc(O)c(OC)c2)NC(=O)NC1C (stereo not drawn)
21 | C/C(=N/Nc1ccc(C(=O)O)cc1)c1ccc2c(c1)Nc1ccccc1S2
5 | COC(=O)c1[nH]c2ccc(C)cc2c1NC(=O)Oc1ccccc1
21 | COc1cc(/C=C/C(=O)OCC(=O)NCCCc2ccccc2)ccc1O
17 | COc1cc(C2C(=O)c3ccccc3C2=O)ccc1O
21 | CCOc1ccc(C2NC(=O)C(C#N)=C(S)N2c2cccc(C)c2)cc1OC (stereo not drawn)
26 | O=C(CCc1ccc(O)c(O)c1)N/N=C/c1ccc2c(c1)OCO2
23 | COc1cc(/C=N/n2c(-c3cc(C)[nH]n3)n[nH]c2=S)cc(OC)c1O

# Individual results from the results shown.
# MgcRacGAP, `COC(=O)c1[nH]c2ccc(C)cc2c1NC(=O)Oc1ccccc1` reads 5
# MgcRacGAP, `CN(C)CCO/N=C(\c1ccc(Br)cc1)c1cccnc1` reads 26
# MgcRacGAP, `COc1ccc(CN2CCN(Cc3c[nH]c4ccccc34)CC2)c(OC)c1` reads 4
# MgcRacGAP, `O=C(O)c1cc(N/N=C/c2c(O)ccc3ccccc23)ccc1Cl` reads 26
# MgcRacGAP, `COc1cc(C(=O)N/N=C(\C)c2ccc(NC(=O)Cc3ccccc3)cc2)ccc1O` reads 34
# MgcRacGAP, `Oc1ccc(Nc2ccnc3cc(Cl)ccc23)cc1` reads 29

# Other structures follow.
MgcRacGAP | molecule
6 | CC(=O)N1CCN(c2ccc(NCc3ccc(F)cc3)cc2)CC1
19 | CCCOC(=O)c1ccc(O)c(OC)c1
10 | COc1cc(N=Nc2ccc(C(=O)N(C)C)cc2)c(C)cc1N
17 | O=C(COC(=O)c1ccccc1)Nc1ncc([N+](=O)[O-])s1
8 | CC(=O)N1CCN(c2ccc(Nc3ncnc4c3oc3ccccc34)cc2)CC1
40 | COc1cccc(/C=C2\C(=O)C(=O)c3ccccc32)c1
5 | COc1cc(-c2cc(-c3ccc(F)cc3)nc(N)c2C#N)ccc1O
13 | O=c1[nH]c2ccccc2n2c(=S)[nH]nc12
27 | Cc1cc(Cl)c(OCCOCCN2CCN(C)CC2)c(Br)c1
33 | CCN(CC)c1ccc(Nc2nc(Cl)ncc2Br)cc1
19 | Oc1ccc(N2CCN(Cc3cc4c(cc3Br)OCCO4)CC2)cc1
21 | N#Cc1ccc(OCC(=O)Nc2ccc(N3CCCC3)cc2)cc1
21 | COc1cc(/C=N/NC(=O)CCNC(=O)c2ccccc2Cl)ccc1O
35 | CC(C)NCC#CCOc1ccc(Cl)cc1
30 | Cc1[nH]ccc2c1[nH]c1cc(=O)ccc12
12 | COc1ccc2cc(C(=O)Nc3ccc(O)cc3)sc(=O)c2c1OC
21 | CCn1c(=O)n(CC)c2cc(N3CCCC3)c(NC(=O)c3cccc(Cl)c3)cc21
14 | CCOCCCNC(=S)N1CCN(Cc2ccc3c(c2)OCO3)CC1
19 | CC(C)N(CCNCC(O)COc1ccc(C(C)(C)c2ccccc2)cc1)C(C)C (stereo not drawn)
79 | O=c1c2ccccc2sn1-c1ccc(Cl)cc1Cl
26 | Oc1ccc(/C=N/Nc2cc(N3CCOCC3)nc(N3CCOCC3)n2)cc1
22 | Cc1cc(C)c(OCC(O)CN2CCN(C(=O)c3ccccc3)CC2)c(C)c1 (stereo not drawn)
34 | Nc1ccc(Nc2nc(-c3cc4ccccc4oc3=O)cs2)cc1
29 | NCC[C@H](O)C(=O)N[C@@H]1C[C@H](N)[C@@H](O[C@H]2O[C@H](CN)[C@@H](O)[C@H](O)[C@H]2O)[C@H](O)[C@H]1O[C@H]1O[C@H](CO)[C@@H](O)[C@H](N)[C@H]1O
24 | COc1cc(/C=C/C(=O)OCC(=O)c2ccc(OC(F)F)cc2)ccc1O
40 | Cc1nc(C)c(CC(=O)N/N=C/c2ccc(O)cc2)c(=O)[nH]1
37 | CCS(=O)(=O)C1=NN2C(=N)/C(=C\c3ccc(SCc4ccco4)o3)C(=O)N=C2S1
25 | Cn1c(N=Nc2ccc(N3CCOCC3)cc2)[n+](C)c2ccccc21
30 | COc1cc(/C=C2\SC(N3CCC(C)CC3)=NC2=O)ccc1O
21 | Cc1ccc(N2C(S)=C(C#N)C(=O)NC2c2cccs2)cc1 (stereo not drawn)
39 | Cc1cc(C)c(OCCCCNCc2ccccc2)c(Cl)c1
23 | CC(=O)N1CCC(=NNC(=O)c2cc3ccccc3cc2O)CC1
66 | CCOc1ccc2c(ccc(/C=C/c3cc(C)c4cccnc4c3O)[n+]2C)c1
20 | Oc1ccc(/C=N/Nc2ccc(C(F)(F)F)cn2)cc1
23 | Nc1cc2c([N+](=O)[O-])cccc2o1
25 | CN(C)CCNC(C(=O)Nc1cccc(C(F)(F)F)c1)c1ccccc1 (stereo not drawn)
18 | COc1ccc(OCCOCCN2CCN(C)CC2)cc1
16 | Cc1ccc(NCc2ccccc2O)cc1C
15 | COC(=O)C1=C(C)N(CC2CCCO2)C(=O)/C1=C\c1ccc(O)cc1 (stereo not drawn)
30 | COc1ccc(/C=N/NC(=O)c2cc[n+]([O-])cc2)cc1O
36 | Oc1ccc2c(ccc3[nH]cnc32)c1
30 | Cc1cc(C)nc(N/N=C/c2c[nH]c3ccccc23)n1
16 | CN(C)c1ccc(NC(=O)COC(=O)c2ccc3c(c2)OCO3)cc1
28 | COc1ccccc1CNC(=O)C[C@@H]1C[C@H]2c3cc(N(C)C)ccc3O[C@H]2[C@H](CO)O1
4 | COc1cccc(CNCc2ccco2)c1O
34 | COc1ccc(CN2CCN(CCSc3ccc(C)cc3)CC2)c(OC)c1OC

# Some of the compounds tested; rates above refer to the full screens.
